Vif A3G – HIV-1 Vif–A3G interaction blockers – biochemical, TR-FRET, GST-Vif 1-94, biotin-A3G peptide, dose response retest, primary screen (AID 1117319); TR-FRET GST-Vif / biotin-A3G peptide binding; higher % means a stronger effect; test concentration not given here; strong numbers were not always called active; inhibition, %; hits with a dose series show IC50 in µM; 260,000 tested, 0.57% active;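 active = above the screen mean plus three standard deviations and confirmed in dose response; inconclusive = results disagree or hit not tested in dose response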;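 also: Vif residues 1-94 fused to GST binding biotinylated APOBEC3G peptide 110-148; 0% = full assay without inhibitor and 100% = GST in place of GST-Vif; retest series ran down from 100 µM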
Beta apoptosis – beta cell apoptosis inhibition; protection from apoptosis, % (no concentration beside the values); 300,000 tested, 0.8% active; INS-1E cytokine-induced death, ATP luminescence, 48 h; percent of positive-control rescue, neutral wells zero;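 active = all replicates at 75% or more, or half of them and the mean; inconclusive = half reach 75% but not the mean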;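 also: 0% = cytokine-treated negative control wells and 100% = positive control rescue; higher means more ATP so stronger rescue from cytokine killing; wells of about 40 µL received 100 nL stock; the first replicate is given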
AF4-AF9 inh – blocks AF4 peptide binding to human AF9 | P42568 | AlphaScreen, biotin-AF4 peptide binding to FLAG-AF9 | inhibition, % at 10 µM | 350,000 tested, 0.47% active | AID 651704;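 active = every replicate reaching a set inhibition limit, whatever the replicate mean, cut at about 25% in these data; inconclusive = mean inhibition reaches that limit but some replicates miss it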;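 also: 0% = plate neutral control median and 100% = total signal loss; the record names both 10 and 1 µM as test concentration; the first replicate is given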
Target sequence (P42568 whole entry, looked up): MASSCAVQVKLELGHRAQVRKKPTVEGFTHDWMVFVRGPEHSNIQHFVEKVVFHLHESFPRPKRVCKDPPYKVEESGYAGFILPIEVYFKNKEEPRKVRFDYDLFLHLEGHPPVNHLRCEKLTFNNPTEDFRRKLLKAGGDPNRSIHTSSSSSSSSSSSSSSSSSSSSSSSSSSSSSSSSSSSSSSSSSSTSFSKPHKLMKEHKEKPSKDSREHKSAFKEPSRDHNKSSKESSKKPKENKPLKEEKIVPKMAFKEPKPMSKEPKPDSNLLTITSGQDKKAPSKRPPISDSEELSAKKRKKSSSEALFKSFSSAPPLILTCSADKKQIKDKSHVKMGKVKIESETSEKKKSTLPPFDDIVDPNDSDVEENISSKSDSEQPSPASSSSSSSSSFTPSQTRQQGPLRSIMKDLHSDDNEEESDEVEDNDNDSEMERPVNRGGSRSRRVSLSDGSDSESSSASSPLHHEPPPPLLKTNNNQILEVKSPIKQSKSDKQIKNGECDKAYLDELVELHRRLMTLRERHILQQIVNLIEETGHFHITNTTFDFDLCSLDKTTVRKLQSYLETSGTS
LANA-H2B inh – blocks KSHV LANA binding to histone H2A/H2B | AID 2629 | Q9QR71 | inhibition, % (no concentration beside the values) | 320,000 tested, 0.6% active | cell-free LANA-H2A/H2B peptide, fluorescence polarization; in the data active = inhibition mostly above about 10%, no sharp cut-off; inactive = mostly below about 6.7%;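 also: stock transfer was 7.5 nL into about 10 µL; 0% = median of vehicle wells and 100% = median of positive control wells; one replicate is shown; the record names a cut of 25% in any replicate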
Calb FLC – C. albicans growth modulation with fluconazole; C. albicans CaCi-2 (fluconazole-resistant clinical isolate) + fluconazole, Alamar Blue growth, 48 h; growth inhibition, % (concentration not given with the values); 300,000 tested, 0.57% active; AID 1979;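 active = most replicates above 75%; inconclusive = exactly half above 75%; inactive = most below 75%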;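 also: all wells also contain fluconazole at 8 µg/ml as a sub-toxic cotreatment; 0% = median of DMSO wells and 100% = median of geldanamycin control wells; wells of about 8 µL received 7.5 nL stock; the first replicate is given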
RanGTP-Impb inh – inhibitors of RanGTP-importin-beta interaction, primary screen, biochemical, FRET, CFP-Ran, YFP-importin-beta, homogeneous; 300,000 tested, 1.1% active; cell-free CFP-Ran/YFP-importin-beta FRET ratio; inhibition, % (test concentration not listed);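 active = most replicates above 15%; inconclusive = exactly half above 15%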;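 also: 0% = DMSO wells and 100% = Ran loaded with GDP instead of GTP; wells of about 40 µL received 100 nL stock; the first replicate is given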
Bfl-1 A1 inh – inhibitors of the anti-apoptotic protein A1, read as caspase activation; 330,000 tested, 0.066% active; MEF A1-2A-BIM cells, Caspase-Glo 3/7 luminescence, 3 h; percent of clofoctol response, vehicle zero; AID 2462; caspase activation, % (test concentration not listed);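 active = over half of replicate activation scores above 10%, or exactly half above 10 with the replicate mean above 10; inconclusive = replicate mean below 10 yet half the replicates above 10; inactive = over half of replicates below 10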;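 also: wells of about 30 µL received 50 nL stock; many hits fall short of the cut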
T cruzi repl – T. cruzi replication inhibition | T. cruzi beta-gal in NIH3T3, luminescence, 90 h | inhibition, % (no concentration beside the values) | 300,000 tested, 1.4% active | AID 1885;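 active = mean inhibition across valid replicates above about 55%, limit read from the data; inconclusive = mean below that limit but half or more replicates reach it; inactive = mean below it, under half of replicates reach it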;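 also: signal also drops with host cell toxicity which is not excluded here; 0% = plate median of DMSO wells and 100% = zero luminescence signal; higher percent means less beta-gal luminescence so fewer parasites; stock transfer was 50 nL into about 50 µL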
* = called active by the depositor; ? = inconclusive; . = not tested or not shown; & = joins results of further samples.

SMILES,Vif A3G,Beta apoptosis,AF4-AF9 inh,LANA-H2B inh,Calb FLC,RanGTP-Impb inh,Bfl-1 A1 inh,T cruzi repl
CCC1=C(OC(=O)N(CC)CC)N2C(=O)OC(=NCCc3c[nH]c4ccccc34)[C@]2(C)[C@H]2C1=CC[C@H]1C(=O)NC(=O)[C@H]12,.,-2,.,-6.5,17,-0.1,-0.5,5
Cc1nc2cc(NC(=O)CS(=O)(=O)c3ccccc3)ccc2s1,-2%,.,-1.3,-2.0,10,2.3,-0.8,-13
CCN(CC)C(=O)c1sc(NC(=O)C(Sc2ccccc2)c2ccccc2)c(C(=O)OC(C)C)c1C (stereo not drawn),-2%,3,.,2.1,-6,-0.5,-0.1,32
O=C(COC(=O)c1ccccc1SCC(=O)NC1CCCCC1)NC1CCCCC1,2%,-3,.,1.9,-15,1.5,1.7,0
CC1CCN(c2ccccc2N)CC1,-1%,3,.,-6.8,-28,0.4,-0.5,30
Cc1ccc(C(C)C)c(OCC(O)CN2CC(C)OC(C)C2)c1 (stereo not drawn),2%,2,.,4.2,-2,-2.7,0.1,-16
CCOC(=O)c1ccc(NC(=O)N2CCN(c3cccc(OC)c3)CC2)cc1,1%,1,0.8,-0.8,39,0.1,0.0,12
COc1cc(/C=C/C(=O)N2CC(C)OC(C)C2)cc(OC)c1OC (stereo not drawn),.,-1,1.2,0.0,-25,3.1,-0.5,-8
O=C(CN1CCN(c2ccccc2F)CC1)NCc1ccccc1,.,-3,3.0,33*,-2,2.5,-1.1,-10
Cc1cc(OCC(=O)Nc2c(C)n(C)n(-c3ccccc3)c2=O)ccc1[N+](=O)[O-],.,0,-2.7,-6.7,-8,-0.6,0.8,-6
Cc1ccc(OCC(=O)OCC(=O)c2ccccc2)cc1C,.,-7,-5.8,-13,-1,0.5,0.1,-11
Cc1cccc(-n2cnc(C(=O)N/N=C\c3ccc(Br)cc3)c2)n1,-3%,-3,.,.,8,-1.7,0.2,5
CSc1sc(C(=O)NC(=O)NCc2cccnc2)c(C)c1-c1ccon1,-72%,-17,0.4,7.2,1,-2.0,-0.3,3
NC(CO)C12CC3CC(CC(C3)C1)C2 (stereo not drawn),19%,-7,0.9,1.3,-5,1.7,0.3,6
CC(=O)Nc1ccc(NC(=O)COC(=O)C2CCCCC2)cc1,.,1,0.6,0.9,.,.,-2.1,.
Cn1c(=NC(=O)C(C)(C)C)sc2cccc(F)c21,1%,4,-2.9,2.0,6,7.6,1.1,0
COC(=O)c1ccccc1S(=O)(=O)N1CCC(C(=O)N2CCC2)CC1,-8%,-7,17,-0.5,.,.,-0.9,.
COc1cccc(N2CCN(C(=O)C3CCCN(S(=O)(=O)c4ccc5c(c4)oc(=O)n5C)C3)CC2)c1 (stereo not drawn),25%,16,-2.4,4.0,2,4.7,-1.5,-13
O=C(c1cccs1)N(C(=O)c1cccs1)c1ccccn1,-6%,-3,1.9,0.8,4,-3.1,-3.2,1
COc1ccc(-c2c(-c3ccccc3OC)oc3ccccc23)cn1,.,0,-2.9,-5.3,.,.,0.1,.
COc1ccc(C2C3=C(CC(C)(C)CC3=O)N(C)C3=C2C(=O)CC(C)(C)C3)cc1,2%,-10,-1.5,-0.7,1,137*,0.1,4
CC1Sc2ccc(S(=O)(=O)N3CCN(c4ccccc4)CC3)cc2NC1=O (stereo not drawn),-9%,-5,-1.2,6.3,9,3.6,-0.2,-5
Cc1ccc(NC(=S)N2CCCC(c3nc4ccccc4[nH]3)C2)cc1 (stereo not drawn),11%,0,1.5,-5.2,-3,-1.8,1.3,-1
Cc1cc(=O)[nH]c(N/N=C/c2ccc(F)cc2)n1,-6%,3,-0.8,4.9,2,0.9,-2.3,4
O=C(NCCN1CCCCC1)c1cc(OCC(F)(F)F)ccc1OCC(F)(F)F,-3%,6,.,-0.7,-7,3.2,-0.2,4
Cc1nn(-c2ccc(F)cc2)c(Cl)c1/C=C1\C(=O)Nc2ccccc21,.,-5,-1.7,-5.7,.,.,0.3,-26
CCOC(=O)N1CCN(C(=O)c2cn(C)c3ccc(S(=O)(=O)N4CCOCC4)cc3c2=O)CC1,-2%,-7,0.1,4.0,5,3.8,-0.9,-10
CCCCn1c(=O)n(C)c(=O)c2c(C(F)(F)F)cc(-c3ccncc3)nc21,-2%,7,.,-2.8,4,6.6,-0.7,8
COc1ccccc1CCNC(=O)C(=O)c1cn(CC(=O)N2CCOCC2)c2ccccc12,.,2,3.1,5.1,-26,2.9,0.7,-5
COC(=O)CN1C(=O)[C@H]2[C@@H](/C=C/c3ccccc3)N3C(=O)CN(Cc4ccccc4)C(=O)[C@@]3(Cc3ccccc3)[C@H]2C1=O,.,-8,-15,5.1,4,-2.9,0.0,-2
N=c1c(C(=O)NCC2CCCO2)cc2c(=O)n3ccccc3nc2n1Cc1ccccc1 (stereo not drawn),.,7,-12,-2.1,-28,180*,0.9,12
O=C(O)C1CC(O)CN1c1nc(Cl)ccc1[N+](=O)[O-] (stereo not drawn),3%,-1,-1.3,-1.7,27,0.5,-0.6,-5
NS(=O)(=O)c1cnccc1Nc1ccc(Cl)c(Cl)c1,-1%,1,.,3.1,5,-5.7,-0.8,-7
Cc1cc(C)c(S(=O)(=O)N2CCCCC2CCNC(=O)C(=O)NC2CC2)c(C)c1 (stereo not drawn),18%,14,.,.,-2,?,1.4,-9
CC(=O)C[C@H](O)CC(=O)[C@H]1OC(=O)CCCCC/C=C/Cc2ccccc21,.,-7,0.5,2.8,.,.,0.1,.
Cc1nnc(SCC(=O)NC(C)(C)C)n1NCc1ccc(Cl)cc1,.,-2,-2.9,5.7,-16,.,0.2,.
COCCNC(=O)C(c1ccc(F)cc1)N(C(=O)CCC(=O)Nc1ccccn1)c1cccc(C)c1 (stereo not drawn),4%,-6,0.2,6.1,1,1.3,1.2,2
CCOC(=O)NC1=NCC(C)S1 (stereo not drawn),-7%,-4,2.8,7.6,0,-1.9,0.7,8
COc1ccc(-c2oc(=O)c3cc(OC)c(OC)cc3c2C#C[C@]2(O)CC[C@H]3[C@@H]4CCc5cc(OC)ccc5[C@H]4CC[C@@]32C)cc1,.,-2,0.8,1.7,.,.,1.9,.
CC(=O)Nc1ccc2nc(NC(=O)CS(=O)(=O)c3ccccc3)sc2c1,6%,-1,-1.0,-3.0,-2,1.8,-0.1,-6
CCOc1ncccc1C(=O)OCC(=O)c1ccc(C)c(C)c1,3%,-3,-0.3,-6.2,-3,0.8,-2.3,-12
CC(C)(C)[C@H]1COC(=O)CCC/C=C/C[C@H](CC(=O)NCCO)C(=O)N1,.,-4,1.0,-0.9,.,.,0.6,.
Cc1ccc(S(=O)(=O)NC(=O)N(CCC#N)Cc2ccccc2)cc1,-6%,-9,-1.4,-5.4,-9,-0.3,0.2,7
O=C(NNC(=O)C1CC(=O)N(c2ccc3c(c2)OCCO3)C1)c1ccc(F)cc1 (stereo not drawn),3%,-3,1.2,-13,22,3.0,0.5,-7
O=C(O)c1ccccc1S(=O)(=O)c1ccccc1CO,3%,.,.,7.7,23,2.9,1.2,-13
COC(=O)c1cc(C(=O)Nc2ccc(Cl)cn2)cc([N+](=O)[O-])c1,3%,-1,1.9,-4.3,-8,3.8,0.3,23
Cc1ccc(CNC(=O)C2CCCN(c3cnccn3)C2)cc1 (stereo not drawn),3%,1,-1.4,2.6,-8,1.8,0.4,6
COc1ccc(/C=C/c2c(-c3ccc(OC)cc3)oc3ccccc23)cc1,.,0,0.2,-4.2,0,1.3,-0.1,-15
COc1ncccc1-c1nnn(-c2ccc(Cl)nc2)n1,-4%,0,-2.2,4.2,-30,5.0,0.4,-15
CC(=O)N1CCc2cc(S(=O)(=O)N3CCCCCC3)ccc21,.,-1,-4.3,3.6,0,1.0,-0.1,-4
COc1ccc(COC(=O)C2CCN(S(=O)(=O)c3ccc(Cl)cc3)CC2)cc1,-10%,-4,-1.5,-1.8,2,-2.3,0.3,-1
O=C(NCC(c1cccs1)N1CCOCC1)c1cc2ccccc2oc1=O (stereo not drawn),.,3,-1.3,6.3,.,.,-0.5,.
CN(C)CCNC(=O)C(C(=O)c1ccc(F)cc1)n1ccccc1=O (stereo not drawn),-2%&-4%,-4,.,-5.0,-1,1.5,0.3,-10
CCOC(=O)c1[nH]c(C)c(C(=O)c2cc(F)ccc2F)c1C,23%,16,.,2.5,3,2.6,0.3,-16
Cc1ccnc(SCC(=O)c2ccc([N+](=O)[O-])cc2)n1,.,-6,-17,2.8,3,0.6,-2.0,-5
CSc1ccc(CCNC(=O)C2CCCN(c3ncnc4c3nc3n4CCCCC3)C2)cc1 (stereo not drawn),.,2,-0.7,1.3,-4,0.4,0.1,30
CCOc1cc2[nH]c(=O)n(CCCC(=O)N(C)Cc3ccccc3)c(=O)c2cc1OCC,9%,0,0.7,1.8,3,-2.3,-0.1,7
CC(C)NC(=O)CN1CCC(O)(c2ccccc2)CC1,11%,1,.,-4.9,3,-0.4,-0.6,9
O=C(O)CC/C(=N/Nc1ccc([N+](=O)[O-])cc1)C(=O)O,7%,2,-10,5.1,0,-1.5,0.2,-1
Cc1cccc(CCNC(=O)c2cc(S(=O)(=O)N3CCCC3)cn2C)c1,.,-1,-0.5,-2.4,3,1.4,-0.2,2

The listing continues:
SMILES,Vif A3G,Beta apoptosis,AF4-AF9 inh,LANA-H2B inh,Calb FLC,RanGTP-Impb inh,Bfl-1 A1 inh,T cruzi repl
c1ccc(Cn2cc(CN3CCCO3)c(-c3ccc4c(c3)OCO4)n2)cc1,-11%,-5,-0.1,4.4,-1,?,0.8,0
CC(C)(C)c1ccc(S(=O)(=O)N2CCN(CCC#N)CC2)cc1,6%,5,-1.9,9.3,1,-3.0,0.4,1
COc1ccc(S(=O)(=O)N2CCN(CCc3ccccc3)CC2)cc1,.,-6,-8.3,-2.7,-4,3.4,-0.2,3
COc1ccc(OC)c(CCNC(=O)CCC(=O)N2CCOc3ccc(C)cc32)c1,.,-6,1.2,-4.8,-5,?,1.0,14
C/C(=N\NC(=O)C1=NNC(=O)C1C)c1cccs1 (stereo not drawn),13%,16,0.4,-0.8,-21,1.8,-5.3,-14
COc1ccccc1CN1CC(C(=O)NCc2cccc(C)n2)CCC1=O (stereo not drawn),.,2,0.0,-2.0,3,-0.7,-0.3,-6
O=C1/C(=C/c2ccc([N+](=O)[O-])cc2)CCc2ccccc21,-9%,1,.,-6.1,4,-1.9,-7.1,-10
COc1ccc(C(=O)NCCc2ccc(C(F)(F)F)cc2)cc1S(=O)(=O)N1CCOCC1,.,-1,-1.3,-3.2,.,.,0.5,.
COc1cccc(NC(=O)CN2C(=O)C(c3ccc(C)cc3)=NC23CCCCCC3)c1,.,4,.,2.0,0,-2.1,-0.1,9
COc1ccccc1-c1sc2ccccc2c1-c1ccc(Br)nc1,.,5,3.1,3.2,.,.,0.6,.
